Vaccinia stage – blocks a specific stage of Vaccinia orthopoxvirus infection; 0.01% of 89,000 active; activity change (mCherry), % (no concentration beside the values); Vaccinia-infected cells, mCherry/Venus stage reporter fluorescence; stronger effect = lower value; some inactives read as strong as hits; AID 1053133;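 active = mCherry past -33% and 40 or more points under the early reporter, replicates agreeing; inconclusive = past -33% without that gap or agreement; tested in A549 cells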;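 also: scaled between vehicle wells and reference inhibitor wells; 23 nL library stock went into each well; one replicate is shown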
Vaccinia stage Venus – second read-out of Vaccinia stage, no call of its own (marks repeat the call); activity change (Venus), %; measured here: Venus reporter, other viral stage;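 negative = less Venus signal; first of two replicates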
The depositor's hits bear a star; ? = inconclusive; nt = not tested or not shown. A portion of the library, so the mix of outcomes need not match the whole.

SMILES	Vaccinia stage	Vaccinia stage Venus
CN(C)C(=O)c1ccc(-c2ccc([C@H]3[C@@H](C#N)N(C(=O)C4CC4)[C@@H]3CO)cc2)cc1	-13	-7
CC(C)NC(=O)N(C)C[C@@H]1Oc2ccc(NC(=O)Cc3ccccc3)cc2C(=O)N([C@@H](C)CO)C[C@H]1C	2	1
C[C@H](CO)N1C[C@H](C)[C@@H](CN(C)S(=O)(=O)c2ccc(Cl)cc2)Oc2ccc(NC(=O)Cn3cnnn3)cc2C1=O	5	6
C[C@@H]1CN([C@@H](C)CO)C(=O)c2cccc(NC(=O)c3nc4ccccc4s3)c2O[C@H]1CN(C)C(=O)Nc1cccc2ccccc12	-6	2
CN(C)CC(=O)N[C@@H]1C=C[C@@H](CC(=O)NCc2ccc(Cl)cc2)O[C@@H]1CO	5	2
C[C@H]1CN([C@@H](C)CO)C(=O)c2cccc(NC(=O)Nc3ccccc3)c2O[C@H]1CN(C)Cc1ccc(Oc2ccccc2)cc1	-31	-10
COc1ccccc1NC(=O)N1CC[C@@H]2[C@H]1c1cc(-c3ccc(F)cc3)ccc1N(C)[C@@H]2CO	-11	-17
O=S(=O)(N[C@@H]1CC[C@@H](CCn2cc(-c3cccc(F)c3)nn2)O[C@@H]1CO)c1ccc(Cl)cc1	-10	-6
CC(C)NC(=O)Nc1cccc2c1O[C@H](CN(C)Cc1ccc3c(c1)OCO3)[C@@H](C)CN([C@H](C)CO)C2=O	2	2
CN(C)CC(=O)N1[C@H](CO)[C@H](c2ccc(C#CC3CCCCC3)cc2)[C@@H]1C#N	?	nt
COc1ccc(NC(=O)N(C)C[C@@H]2Oc3ccc(NC(=O)Cc4cn(C)c5ccccc45)cc3CC(=O)N([C@H](C)CO)C[C@H]2C)cc1	7	0
O=C(Cc1cccnc1)N1CC(=O)N2[C@H](C1)[C@@H](c1ccc(/C=C/c3ccccc3)cc1)[C@@H]2CO	-30	-23
C[C@@H]1CCCCO[C@@H](CN(C)Cc2ccc(Cl)c(Cl)c2)[C@H](C)CN([C@@H](C)CO)C(=O)c2cc(NC(=O)c3ccccc3)ccc2O1	?	nt
CCOC(=O)OC[C@@H]1[C@@H]2NC(=O)N(C)[C@@]1(COCc1ccc(OC)cc1)Oc1ccccc12	6	5
O=C(C[C@H]1CC[C@H](NC(=O)c2cccc(F)c2)[C@@H](CO)O1)NCCN1CCCC1	-7	1
C[C@@H]1CCCCO[C@H](CN(C)C(=O)CCC(F)(F)F)[C@@H](C)CN([C@H](C)CO)C(=O)c2cc(NC(=O)Nc3ccc4c(c3)OCO4)ccc2O1	15	5
COc1ccc(S(=O)(=O)Nc2ccc3c(c2)CC(=O)N([C@H](C)CO)C[C@H](C)[C@H](CN(C)Cc2ccc(Cl)c(Cl)c2)O3)cc1	?	nt
C[C@@H]1CN([C@H](C)CO)C(=O)c2cc(NC(=O)CCN3CCOCC3)ccc2O[C@@H]1CN(C)Cc1ccccc1	5	1
O=C(C[C@@H]1C[C@H]2c3cc(NS(=O)(=O)c4ccc(F)cc4)ccc3O[C@H]2[C@@H](CO)O1)N1CCOCC1	13	3
COc1ccc(CN2[C@@H](CO)[C@@H]3c4ccccc4N(C(=O)CC(F)(F)F)C[C@@H]32)cc1	?	nt
C[C@@H]1CCCCO[C@H](CN(C)Cc2ccccc2)[C@@H](C)CN([C@@H](C)CO)C(=O)c2cc(NC(=O)Nc3ccc4c(c3)OCO4)ccc2O1	?	nt
COC(=O)C[C@@H]1C[C@@H]2c3cc(NC(=O)NC4CCCC4)ccc3O[C@@H]2[C@H](CO)O1	-8	6
CN1[C@@H]2Cn3c(ccc(-c4cccc(F)c4)c3=O)[C@H]1[C@@H](C(=O)NCc1ccccc1)[C@@H]2CO	-3	-3
C[C@H](CO)N1C[C@H](C)[C@@H](CN(C)S(C)(=O)=O)Oc2ccc(NC(=O)Nc3cccc4ccccc34)cc2CC1=O	21	21
CN(C)C(=O)C[C@H]1C=C[C@@H](NC(=O)C2CC2)[C@H](CO)O1	5	-4
SMILES	Vaccinia stage	Vaccinia stage Venus
CC(C)NC(=O)N(C)C[C@@H]1Oc2c(NC(=O)c3ccncc3)cccc2C(=O)N([C@@H](C)CO)C[C@@H]1C	10	9
O=C(C[C@@H]1C[C@H]2c3cc(NS(=O)(=O)c4ccccc4)ccc3O[C@H]2[C@H](CO)O1)NCC(F)(F)F	8	12
O=C(c1ccc(F)cc1)N1CC(=O)N2[C@H](C1)[C@H](c1ccc(C#CC3CC3)cc1)[C@@H]2CO	-13	-10
COc1ccc2c3c(n(C)c2c1)[C@@H](CO)NCC31CCN(Cc2ccc(-c3ccccn3)cc2)CC1	?	nt
CCCN1C[C@H](C)[C@@H](OC)CN(C)C(=O)c2cc(NC(=O)c3cnccn3)ccc2OC[C@@H]1C	6	1
COc1cccc(C(=O)Nc2ccc3c(c2)C(=O)N(C)C[C@@H](OC)[C@H](C)CN[C@@H](C)CO3)c1	7	3
CCCNC(=O)[C@@H]1[C@@H](CO)[C@@H]2Cn3c(cccc3=O)[C@H]1N2Cc1ccccc1	22	12
O=C(NCC[C@@H]1CC[C@@H](NS(=O)(=O)c2cccc(F)c2)[C@H](CO)O1)C1CCCC1	9	14
C[C@@H]1CCCCO[C@H](CN(C)C(=O)c2ccccc2)[C@@H](C)CN([C@@H](C)CO)C(=O)c2cc(NS(=O)(=O)c3cccs3)ccc2O1	-3	-11
CC(=O)N1[C@H](C(=O)NCc2ccccc2F)[C@@H](CO)[C@@H]2Cn3c(ccc(-c4ccccc4)c3=O)[C@@H]21	17	-5
CC(C)C#Cc1ccc2c(c1)O[C@@H](CN(C)C(=O)c1ccncc1)[C@@H](C)CN([C@H](C)CO)S2(=O)=O	-6	0
C[C@H](NC(=O)C[C@@H]1CC[C@@H]2[C@H](COC[C@@H](O)CN2Cc2ccc(C(F)(F)F)cc2)O1)c1ccccc1	?	nt
CCCC(=O)Nc1ccc2c(c1)C(=O)N(C)[C@H]1CC[C@H](CC(=O)NCC3CCCCC3)O[C@@H]1CO2	11	1
CC(C)(C)[C@H]1C=C(C(=O)NCc2nc3ccccc3[nH]2)O[C@@H](OCc2ccc(CO)cc2)C1	0	0
COCCCNC(=O)[C@@]1(C)c2ccccc2C(=O)N(Cc2cc(F)cc(C(F)(F)F)c2)[C@H]1c1ccc(CO)cc1	-1	-3
O=C(C[C@@H]1CC[C@H](NC(=O)Nc2ccc3c(c2)OCO3)[C@H](CO)O1)NCc1ccccc1	19	14
CC(C)NC(=O)N(C)C[C@H]1Oc2ncc(C#Cc3ccc(F)cc3)cc2C(=O)N([C@H](C)CO)C[C@H]1C	-1	3
COc1ccccc1CNC(=O)C[C@@H]1CC[C@@H](NC(C)=O)[C@@H](CO)O1	7	9
COCC#Cc1ccc2c(c1)O[C@@H](CN(C)C(=O)C1CCC1)[C@@H](C)CN([C@@H](C)CO)S2(=O)=O	1	-2
O=C(N[C@H]1CC[C@@H](CC(=O)N2CCC(Cc3ccccc3)CC2)O[C@H]1CO)c1cnccn1	7	8
CN1CCN(C(=O)C2=C[C@@H](C3CCCCC3)C[C@@H](OCc3ccc(CO)cc3)O2)CC1	13	9
COc1ccc(-c2cnc3c(c2)C(=O)N([C@H](C)CO)C[C@H](C)[C@H](CN(C)C(=O)C2CCC2)O3)cc1	-5	-2
CC(C)CC#Cc1cnc2c(c1)C(=O)N([C@H](C)CO)C[C@H](C)[C@H](CN(C)C(=O)Nc1cccc(F)c1)O2	?	nt
CCS(=O)(=O)N1[C@H](CO)[C@H](c2ccccc2)[C@H]1CN(C(C)=O)C1CCCC1	-2	3
CC(C)NC(=O)N(C)C[C@@H]1OCCCC[C@@H](C)Oc2ccc(NC(=O)Nc3ccc4c(c3)OCO4)cc2C(=O)N([C@@H](C)CO)C[C@@H]1C	12	13

Reprinted from the part before: six compounds, then new ones.
SMILES	Vaccinia stage	Vaccinia stage Venus
O=C(N[C@H]1CC[C@@H](CC(=O)N2CCC(Cc3ccccc3)CC2)O[C@H]1CO)c1cnccn1	7	8
CN1CCN(C(=O)C2=C[C@@H](C3CCCCC3)C[C@@H](OCc3ccc(CO)cc3)O2)CC1	13	9
COc1ccc(-c2cnc3c(c2)C(=O)N([C@H](C)CO)C[C@H](C)[C@H](CN(C)C(=O)C2CCC2)O3)cc1	-5	-2
CC(C)CC#Cc1cnc2c(c1)C(=O)N([C@H](C)CO)C[C@H](C)[C@H](CN(C)C(=O)Nc1cccc(F)c1)O2	?	nt
CCS(=O)(=O)N1[C@H](CO)[C@H](c2ccccc2)[C@H]1CN(C(C)=O)C1CCCC1	-2	3
CC(C)NC(=O)N(C)C[C@@H]1OCCCC[C@@H](C)Oc2ccc(NC(=O)Nc3ccc4c(c3)OCO4)cc2C(=O)N([C@@H](C)CO)C[C@@H]1C	12	13
COc1cccc(C(=O)Nc2ccc3c(c2)OC[C@@H](C)N(CCc2ccccc2)C[C@@H](C)[C@@H](OC)CN(C)C3=O)c1	-28	-12
CC(C)NC(=O)N1CC2(C1)[C@@H](c1ccccc1)[C@@H](CO)N2C(=O)C1CCCC1	1	9
Cc1ccc(S(=O)(=O)Nc2ccc3c(c2)C(=O)N([C@H](C)CO)C[C@H](C)[C@@H](CN(C)Cc2ccc(Cl)c(Cl)c2)O3)cc1	-4	1
O=C(C[C@H]1C[C@H]2c3cc(NC(=O)NC4CCCCC4)ccc3O[C@H]2[C@H](CO)O1)NCC(F)(F)F	9	3
O=C(C[C@H]1C[C@@H]2c3cc(NC(=O)Nc4ccc(C(F)(F)F)cc4)ccc3O[C@@H]2[C@H](CO)O1)NC1CCCCC1	4	4
COCC#Cc1ccc2c(c1)O[C@@H](CN(C)Cc1cncnc1)[C@@H](C)CN([C@@H](C)CO)S2(=O)=O	22	14
O=C(C[C@@H]1CC[C@@H]2[C@H](COC[C@H](O)CN2CC2CCOCC2)O1)N1CCOCC1	16	17
CN1C(=O)c2cc(NC(=O)c3ccc(C(F)(F)F)cc3)ccc2OC[C@@H]2O[C@H](CC(=O)NCc3ccc4c(c3)OCO4)CC[C@@H]21	?	nt
O=C(Cc1ccccn1)N1CC(=O)N2[C@H](CO)[C@@H](c3ccc(-c4ccc(F)cc4)cc3)[C@@H]2C1	-3	-5
C[C@@H]1CN([C@H](C)CO)C(=O)Cc2cc(NC(=O)Cn3cnnn3)ccc2O[C@H]1CN(C)Cc1ccc(-c2ccccc2)cc1	18	4
CC(C)NC(=O)Nc1ccc2c(c1)C(=O)N([C@@H](C)CO)C[C@H](C)[C@H](CN(C)Cc1ccc(C(F)(F)F)cc1)OCCCC[C@@H](C)O2	?	nt
COc1ccccc1NC(=O)Nc1ccc2c(c1)C(=O)N(C)C[C@H](OC)[C@H](C)CN[C@H](C)CO2	-4	-4
COc1cc(CN2CC3(CN(C)C3)c3c([nH]c4cc(OC)ccc34)[C@@H]2CO)cc(OC)c1	-5	4
Fc1cccc(-c2ccc(C3[C@H]4CNC[C@@H]3N4Cc3cncnc3)cc2)c1 (stereo partly drawn)	-6	-4
O=C(C[C@H]1C[C@H]2c3cc(NC(=O)CC4CC4)ccc3O[C@H]2[C@H](CO)O1)NCC1CC1	14	6
N#C[C@@H]1N[C@@H](CO)[C@H]1c1ccc(C#Cc2ccc(F)cc2)cc1	3	-4
CO[C@@H]1CN(C)C(=O)c2cc(NC(=O)Nc3cccc(F)c3)ccc2OC[C@@H](C)N(C(=O)Nc2c(C)noc2C)C[C@@H]1C	2	5
O=C(Cc1ccccn1)N[C@H]1CC[C@@H](CCNS(=O)(=O)c2cccc(F)c2)O[C@H]1CO	2	5
CCN1[C@@H]2Cn3c(ccc(-c4ccccc4OC)c3=O)[C@H]1[C@@H](C(=O)N1CCOCC1)[C@@H]2CO	4	0
Cc1noc(C)c1NC(=O)N[C@H]1CC[C@@H](CCNC(=O)C2CCCC2)O[C@@H]1CO	0	4
O=C(C1CCC1)N1[C@@H](CO)[C@@H](c2ccccc2)C12CN(CCC(F)(F)F)C2	7	11
CO[C@@H]1CN(C)C(=O)c2cc(NS(=O)(=O)CC(F)(F)F)ccc2OC[C@@H](C)N(C)C[C@H]1C	-9	-6
CO[C@@H]1CN(C)C(=O)c2cc(NS(=O)(=O)c3cn(C)cn3)ccc2OC[C@@H](C)N(CCC(F)(F)F)C[C@H]1C	-34	-26
O=C(C[C@H]1CC[C@H]2[C@@H](COC[C@H](O)CN2C(=O)Cc2ccccc2)O1)NC1CCC1	11	12
COCC(=O)Nc1ccc2c(c1)OC[C@H](C)N(C(=O)Cc1cccnc1)C[C@H](C)[C@@H](OC)CN(C)C2=O	-2	2
C[C@H](CO)N1C[C@H](C)[C@@H](CN(C)Cc2ccc(Cl)c(Cl)c2)OCCCC[C@H](C)Oc2ccc(NS(=O)(=O)c3ccc(Cl)cc3)cc2C1=O	?	nt
COc1ccc(S(=O)(=O)N(C)C[C@H]2OCc3ccccc3-c3ccccc3C(=O)N([C@@H](C)CO)C[C@H]2C)cc1	-7	-7
C[C@@H]1CN([C@@H](C)CO)C(=O)c2cc(NS(=O)(=O)c3cn(C)cn3)ccc2O[C@@H]1CN(C)Cc1ccncc1	9	-2
C[C@H](CO)N1C[C@H](C)[C@H](CN(C)Cc2ccncc2)Oc2ccc(NC(=O)Nc3cccc4ccccc34)cc2C1=O	-11	-16
CCCNC(=O)[C@@H]1[C@@H](CO)[C@@H]2Cn3c(cccc3=O)[C@@H]2N1CC1CC1	7	60

3 structures from above, sorted by SMILES length, descending:
SMILES	Vaccinia stage	Vaccinia stage Venus
C[C@@H]1CCCCO[C@H](CN(C)C(=O)CCC(F)(F)F)[C@@H](C)CN([C@H](C)CO)C(=O)c2cc(NC(=O)Nc3ccc4c(c3)OCO4)ccc2O1	15	5
CN1C(=O)c2cc(NC(=O)c3ccc(C(F)(F)F)cc3)ccc2OC[C@@H]2O[C@H](CC(=O)NCc3ccc4c(c3)OCO4)CC[C@@H]21	?	nt
O=C(Cc1ccccn1)N1CC(=O)N2[C@H](CO)[C@@H](c3ccc(-c4ccc(F)cc4)cc3)[C@@H]2C1	-3	-5

Screens as filed in PubChem.
